Screening results: PubChem, several laboratories
AF4-AF9 inh – inhibitors of AF4 peptide binding to AF9, primary screen, biochemical, AlphaScreen, biotin-AF4 peptide, FLAG-AF9, single point. AID 651704, 2012. actives 0.47% (n = 350,000). inhibition, % at 10 µM;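 active = every replicate reaching a set inhibition limit, whatever the replicate mean, cut at about 25% in these data; inconclusive = mean inhibition reaches that limit but some replicates miss it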;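 note: 0% = plate neutral control median and 100% = total signal loss; the record names both 10 and 1 µM as test concentration; the first replicate is given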
HNF4A DNA FP – change in binding of human HNF4A to DNA, primary screen, biochemical, fluorescence polarization, FITC-DNA; 1 h; activity change, % at 10 µM; actives 0.3% (n = 360,000); AID 1224865, 2016; in the data active = activity change above about 30%, passing the limit was not always enough;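 note: controls were the assay level and a saturating level of protein; the project sought stronger binding though the title names inhibitors; some compounds called inactive have numbers as strong as hits; positive values seem to mean higher polarization but the record does not say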
Target sequence (P41235 whole entry, looked up): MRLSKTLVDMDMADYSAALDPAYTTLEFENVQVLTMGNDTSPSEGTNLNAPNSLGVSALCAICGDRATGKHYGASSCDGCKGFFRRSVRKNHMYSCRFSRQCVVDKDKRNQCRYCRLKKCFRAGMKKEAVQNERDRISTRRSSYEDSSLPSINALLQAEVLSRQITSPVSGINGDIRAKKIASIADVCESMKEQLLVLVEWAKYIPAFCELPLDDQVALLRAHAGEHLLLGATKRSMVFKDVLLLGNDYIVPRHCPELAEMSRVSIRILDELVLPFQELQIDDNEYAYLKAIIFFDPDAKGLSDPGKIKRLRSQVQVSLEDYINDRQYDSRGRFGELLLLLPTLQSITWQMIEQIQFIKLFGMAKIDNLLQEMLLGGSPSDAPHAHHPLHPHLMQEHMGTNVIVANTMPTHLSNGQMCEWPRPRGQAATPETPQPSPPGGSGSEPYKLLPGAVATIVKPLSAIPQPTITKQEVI
RanGTP-Impb inh – inhibitors of RanGTP-importin-beta interaction, primary screen, biochemical, FRET, CFP-Ran, YFP-importin-beta, homogeneous | Ran GTPase (GTP-bound) - importin-beta complex | cell-free CFP-Ran/YFP-importin-beta FRET ratio | AID 2216, 2009 | actives 1.1% (n = 300,000) | inhibition, % (test concentration not listed);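 active = most replicates above 15%; inconclusive = exactly half above 15%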;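 note: 0% = DMSO wells and 100% = Ran loaded with GDP instead of GTP; wells of about 40 µL received 100 nL stock; the first replicate is given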
Ecoli growth – E. coli growth inhibition, primary screen, OD600. actives 0.21% (n = 330,000). OD600 absorbance (test concentration not listed). Escherichia coli growth, 23 h; active compounds read low;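 active = OD600 absorbance below the run mean of sample wells minus 3.6 SD, in any replicate, cut at about 0.56 in these data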;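 note: stock transfer was 300 nL into about 60 µL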
UCH37 inh – inhibitors of human UCH37 deubiquitinase, primary screen, biochemical, Ub-AMC cleavage, fluorescence | inhibition, % (no concentration beside the values) | purified proteasome/UCH37 | Ubiquitin carboxyl-terminal hydrolase isozyme L5 (Homo sapiens), Q9Y5K5 | AID 588478, 2011 | actives 0.33% (n = 330,000);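 active = mean of two replicates above 20%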;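 note: 0% = compound-free wells with enzyme and 100% = wells lacking proteasome; stock transfer was 100 nL into about 20 µL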
Target sequence (Q9Y5K5 whole entry, looked up): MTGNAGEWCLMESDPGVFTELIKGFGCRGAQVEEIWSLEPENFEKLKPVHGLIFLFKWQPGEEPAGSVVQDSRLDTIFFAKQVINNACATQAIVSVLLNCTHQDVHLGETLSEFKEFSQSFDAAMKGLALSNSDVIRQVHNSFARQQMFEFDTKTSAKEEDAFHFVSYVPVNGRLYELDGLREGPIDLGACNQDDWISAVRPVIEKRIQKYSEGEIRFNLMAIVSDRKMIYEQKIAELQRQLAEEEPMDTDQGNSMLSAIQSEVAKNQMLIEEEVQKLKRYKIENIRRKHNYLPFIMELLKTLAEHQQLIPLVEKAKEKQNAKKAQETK
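system = Proteasome-associated human UCH37 deubiquitinase | amount = 0.15 nM proteasome as dispensed | medium = pH 7.4 Tris-HCl (50 mM) with ovalbumin, ATP-MgCl2, DTT | incubation = 30 min preincubation with enzyme, 25 min cleavage at room temperature | detection = AMC fluorescence 355/460 nm | read-out basis = percent inhibition | controls = no-proteasome and no-compound wells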
FGF22 binding – binders of human FGF22 protein, primary screen, FGF22 synaptogenesis inhibitor project, biophysical, thermal shift, single point. calls only at 9.99 µM. actives 1.5% (n = 340,000). AID 651658, 2012. recombinant FGF22 thermal shift, SYPRO orange fluorescence; percent of sucrose octasulfate shift, DMSO zero;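 active = melting point raised past a set limit in the mean and every replicate; inconclusive = no clear call; three in four hits are not shown here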
Target sequence (Q9HCT0 whole entry, looked up): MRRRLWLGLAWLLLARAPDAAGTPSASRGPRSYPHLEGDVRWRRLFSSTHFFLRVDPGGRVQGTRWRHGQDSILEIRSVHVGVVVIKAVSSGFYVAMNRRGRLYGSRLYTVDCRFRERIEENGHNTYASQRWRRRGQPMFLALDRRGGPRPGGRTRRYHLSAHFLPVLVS
Vif A3G – inhibitors of Vif binding to APOBEC3G peptide, primary screen, biochemical, TR-FRET, GST-Vif 1-94, biotin-A3G peptide, dose response retest (AID 1117319); Virion infectivity factor (Human immunodeficiency virus type 1 group M subtype B (isolate …; TR-FRET GST-Vif / biotin-A3G peptide binding; higher % means a stronger effect; test concentration not given here; strong numbers were not always called active; inhibition, %; hits with a dose series show IC50 in µM; actives 0.57% (n = 260,000);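 active = above the screen mean plus three standard deviations and confirmed in dose response; inconclusive = results disagree or hit not tested in dose response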;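 note: Vif residues 1-94 fused to GST binding biotinylated APOBEC3G peptide 110-148; 0% = full assay without inhibitor and 100% = GST in place of GST-Vif; retest series ran down from 100 µM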
* = called active by the depositor; i = inactive; ? = inconclusive; · = no result given.

Molecule,RanGTP-Impb inh,Ecoli growth,AF4-AF9 inh,UCH37 inh,Vif A3G,HNF4A DNA FP,FGF22 binding
Brc1nnc2n1-c1ccccc1Sc1ccccc1-2,2.0,0.69,·,0.2,10%,1.9,·
Cc1ccc(Nc2nc(N)nc(CSCCO)n2)cc1,-1.4,0.74,·,4.6,?,-2.4,·
Cc1ccc(SCC(=O)NC(C)c2ccccc2)cc1 (stereo unspecified),2.7,0.66,-1.0,5.1,-2%,-2.0,i
CCOC(=O)c1c(NC(=O)CSc2ncnc3[nH]ncc23)sc2c1CCC(C)C2 (stereo unspecified),-6.0,0.7,-0.8,2.9,-3%,-1.9,i
COc1cccc(-n2cc(C(=O)O)c3ccccc3c2=O)c1,4.9,0.69,·,-2.4,12%,1.5,·
Cc1c2cnccc2c(C)c2c1oc1ccccc12,·,·,0.3,·,-10%,-5.0,i
Nc1nonc1C(=O)N1CCCCC1,0.7,0.66,-1.7,0.8,1%,0.5,·
CC(NC(=O)c1c(O)c2ccccc2[nH]c1=O)c1ccccc1 (stereo unspecified),-0.1,0.66,-8.6,-5.4,·,-1.7,i
Cc1ccc2c(c1)C1C[N+](C)(CC(=O)c3ccccc3)CCC1N2C(=O)c1ccccc1Cl (stereo unspecified),·,0.72,3.8,4.1,-3%,5.2,i
CCCCNC(=S)NNC(=O)c1ccc2c(c1)OCO2,4.7,0.7,-1.9,-1.3,22%,4.3,i
CC(C)COC(=O)N1CCCCC1c1cc(C(=O)NCc2cccnc2)no1 (stereo unspecified),·,·,0.8,·,·,-1.4,i
O=C(OCCOc1cccc(Cl)c1)c1ccc(F)c(S(=O)(=O)N2CCOCC2)c1,·,·,-0.4,·,9%,1.7,i
CCOc1ccc2ccccc2c1/C=N/NC(=O)c1ccncc1,1.3,·,5.7,·,-1%,-0.3,i
CCc1ccc(N2C(=O)CN(Cc3ccccc3)C2=S)cc1,1.4,0.64,-2.1,3.1,-9%,1.8,i
COc1ccc(CC(=O)c2ccc(OC)c(OC)c2C)cc1OC,-0.3,0.64,2.0,3.7,-9%,1.4,i
O=c1c2ccccc2n(Cc2ccc(Cl)cc2)c(=O)n1Cc1ccco1,-1.6,0.73,·,0.0,-9%,-1.5,·
COc1ccc(-c2nc(-c3cccc(C)c3)[nH]c(=O)c2C#N)cc1,-4.3,0.74,·,-99,7%,1.7,·
COC(=O)c1cc2c(cc1NC(=O)CSCCc1ccccn1)OCO2,1.5,0.63,·,3.8,0%,-1.2,·
Cc1ccc2c(c1)sc1nc(=O)n(-c3ccc(Cl)cc3)c(=O)n12,-0.2,0.67,·,3.8,-10%,1.2,·
OCCC1CN(Cc2ccccc2O)CCN1CCc1ccccc1 (stereo unspecified),0.2,·,1.7,·,-3%,-2.4,i
Cc1ccc(NS(=O)(=O)c2cc(C(=O)NCc3ccccn3)ccc2Cl)cc1C,-0.9,0.7,·,0.9,16%,-2.4,·
CCN(CC)C(=O)c1c(C)nc2ccccn12,3.5,0.78,·,2.3,0%,0.1,·
Cc1nnc(N(C)C(=O)Cc2ccc3c(c2)OCO3)s1,?,0.7,·,-3.8,25%,-0.1,·
O=C(CCS(=O)(=O)c1ccc(Cl)cc1)Nc1nnc(-c2cccs2)o1,-0.8,0.63,-1.4,1.1,-24%,-1.9,i
CC(=O)Nc1ccc(S(=O)(=O)Nc2cc(S(=O)(=O)N3CCCCC3)ccc2O)cc1,·,0.68,-0.6,-1.0,2%,2.7,i
CN(C)c1ccc(O)c2c1CC1CC3[C@@H](N(C)C)C(=O)C(C(N)=O)=C(O)[C@]3(O)C(=O)C1=C2O (stereo partly specified),1.7,·,-5.5,3.1,1.1µM*,-33,i
CSC[C@H](NC(=O)Cc1c(C)c2cc3c(C)c(C)oc3cc2oc1=O)C(=O)N[C@@H](Cc1ccccc1)C(=O)O,5.9,0.69,·,-35,·,1.1,·
Cc1cccc(C)c1NC(=O)C1(C)CN(S(C)(=O)=O)CC(=O)N1CCc1ccccc1F (stereo unspecified),·,·,2.1,·,·,2.3,i
O=C(Cc1ccc(NC(=O)C2CCN(C(=O)C3CCCC3)CC2)cc1)Nc1ccc(C(=O)N2CCOCC2)cc1,·,0.71,18,0.5,18%,3.4,·
Cc1ccc2[nH]c(-c3ccccc3)c(CN3CCN(C)CC3)c(=O)c2c1,?,0.66,·,1.8,31%,5.0,·
COc1ccccc1NC(=O)c1csc2c1CCC(C)C2 (stereo unspecified),-0.8,0.7,-4.4,0.5,4%,3.5,i
O=C(NCc1ccc(F)cc1)C(=O)NCC1OCCCN1S(=O)(=O)c1cccs1 (stereo unspecified),3.9,0.71,-1.8,3.0,·,6.4,i
O=C(CSc1nc2ncccc2[nH]1)NCc1ccccc1,0.9,0.67,2.7,0.8,1%,13,i
O=C(Cc1cccc2ccccc12)Nc1cccnc1,0.8,0.72,-0.9,0.3,·,0.4,i
COc1ccc(CCn2c(=O)[nH]c3cc(C(=O)NCCCN4CCOCC4)ccc3c2=O)cc1OC,3.6,0.71,3.9,3.6,?,9.2,i
CC(C)(C)OC(=O)NCCCCc1cn(CC(=O)N2CCN(C(=O)OC(C)(C)C)CC2)nn1,-0.7,0.68,5.1,1.3,6%,3.8,i
CC(C)NC(=O)Nc1n[nH]c(Nc2ccc(Cl)cc2)n1,-1.8,0.67,-0.5,3.1,1%,4.9,i
CCC(=O)N1CCN(c2nnc(-c3ccccc3)c3ccccc23)CC1,1.4,0.67,-0.9,6.7,-9%,1.1,i
O=c1[nH][nH]c2c1C(C1CCCCC1)OC(C1CCCCC1)C2 (stereo unspecified),·,·,0.1,·,·,-1.7,i
COc1ccc(CNC(=O)/C=C/[C@H]2O[C@@H](n3cnc4c(NC(=O)c5ccccc5)ncnc43)[C@H](O)[C@@H]2O)cc1,·,·,-1.2,·,·,0.7,i
CCOC(=O)c1cc(NC(=O)N(C)C2CCCCC2)c(C)nc1C,0.4,0.73,-1.0,4.1,·,2.0,i
COc1ccc(-c2nnc(-c3ccc4ccccc4c3)o2)cc1,·,0.68,-2.7,-85,-4%,-1.6,i
O=c1c2ccccc2nnn1CSc1nc2ccccc2[nH]1,?,0.69,·,3.5,·,-0.3,·
COC(=O)c1cccc(-c2ccc(/C=N/N3C(=O)C4C5C=CC(C6CC56)C4C3=O)o2)c1 (stereo unspecified),1.2,·,4.1,·,11%,-2.7,i
Cc1ccc(-c2csc(N/N=C/c3ccco3)n2)cc1,-1.0,·,·,·,9%,-0.4,·
CC(=O)c1cccc(N(C(=O)Cn2nnc3ccccc32)C(C(=O)NC2CCCCC2)c2cn(C)nc2C)c1 (stereo unspecified),1.3,0.66,3.2,2.4,-1%,-4.5,i
COCCN1C(=O)c2ccccc2C1c1nnnn1C(C)C (stereo unspecified),·,·,0.3,·,·,-0.2,i
Cc1ccc(S(=O)(=O)N(C)CC(=O)NNC(=O)Cc2cccc(F)c2)cc1,·,0.71,-2.7,0.2,?,0.4,i
COc1cc(/C=N/Nc2ccc(F)cc2F)cc(OC)c1OC,-3.6,·,5.1,·,29%,0.9,i
CSc1c(-c2ccccc2)nc2ccc(Cl)cc2c1C(=O)O,-4.9,0.66,·,4.4,-1%,1.0,·
COC(=O)c1cccc(NC(=O)c2ccc3c(c2)C(=O)N(C(C)(C)C)C3=O)c1,-2.5,0.68,0.1,-10,·,2.1,i
COC(=O)N1CCN(c2ccc(OC)cc2)CC1,0.3,0.72,1.8,5.1,10%,-0.4,i
Cc1nnc2n(C)c(=O)c3c4c(sc3n12)COC(C)(C)C4,-0.3,0.73,0.0,6.0,·,3.8,·
COc1ccccc1Cn1c(C)nc2ccccc21,-0.9,0.64,1.6,1.5,·,6.3,i
COCCCn1c(SCC(=O)Nc2sc3c(c2C#N)CCCC3)nnc1-c1ccncc1,2.0,0.7,·,1.8,20%,3.5,·
Cc1ccc(OCC(=O)Oc2ccc(C(C)C)cc2)cc1,4.0,0.65,-0.8,2.0,0%,2.0,i
CC(C)CCN(C(=O)c1ccccn1)c1c(N)n(Cc2ccccc2)c(=O)[nH]c1=O,·,0.71,1.1,4.5,15%,2.2,i
COc1ccc2c(c1)c1nnc(SCC(=O)Nc3ccccc3F)nc1n2C,1.2,0.63,-1.7,5.3,-5%,-0.3,i
O=C(Nc1ccc(F)c(Cl)c1)C1CC(=O)n2c(nc3ccccc32)N1 (stereo unspecified),1.2,0.64,-8.9,5.8,15%,0.8,i
COc1cccc(-c2cnc3c(NC=O)cc(-c4cccc(NC(C)=O)c4)cn23)c1,·,·,2.0,·,·,5.5,i

Single records, as listed above:
Record of Cc1ccc(OCC(=O)Oc2ccc(C(C)C)cc2)cc1 → RanGTP-Impb inh: 4.0; Ecoli growth: 0.65; AF4-AF9 inh: -0.8; UCH37 inh: 2.0; Vif A3G: 0%; HNF4A DNA FP: 2.0; FGF22 binding: i
Record of COCCCn1c(SCC(=O)Nc2sc3c(c2C#N)CCCC3)nnc1-c1ccncc1 → RanGTP-Impb inh: 2.0; Ecoli growth: 0.7; AF4-AF9 inh: ·; UCH37 inh: 1.8; Vif A3G: 20%; HNF4A DNA FP: 3.5; FGF22 binding: ·

(further entries)
Molecule,RanGTP-Impb inh,Ecoli growth,AF4-AF9 inh,UCH37 inh,Vif A3G,HNF4A DNA FP,FGF22 binding
NC(=O)c1cc(-c2csc(NCCc3ccccc3)n2)ccc1O,-4.7,0.69,6.5,-2.8,·,0.5,i
Cc1nn2c3ccccc3n(CC(=O)c3cccs3)c2nc1=O,-1.1,0.69,3.6,-51,-51%,2.2,i
COc1ccc(CC(CC(=O)O)C(=O)Nc2ccccc2)cc1 (stereo unspecified),-1.9,0.71,·,4.1,4%,-0.2,·
O=C(COC(=O)c1cccnc1Cl)NCC1CCCO1 (stereo unspecified),-2.4,0.71,-1.4,-1.2,-4%,-1.1,i
CS(=O)(=O)N1CCCC(C(=O)Nc2ccc3c(c2)OCCO3)C1 (stereo unspecified),?,0.68,-1.5,4.0,2%,-5.4,i

Not all compounds are listed; rates above refer to the full screens.
